Assay outcomes from PubChem.
HPGD inh = HPGD (human) dehydrogenase inhibition; purified HPGD, NADH fluorescence kinetic, PGE2 substrate; AID 894; Potency, µM, for inactives: at the highest dose activity change, negative = inhibition, most hits filed as inhibitors; P15428; actives 4.3% (n = 150,000); active = well fitted inhibition curve with a large enough effect (not every such curve was filed as active); inconclusive = small, poorly fitted or top-dose-only effect, or another doubt; inactive = no such curve, though single readings can be large or run the other way;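 note: top concentration of the series not given in the record; plate controls included wells without enzyme; inactives centre near -10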
Target sequence (P15428 whole entry, looked up): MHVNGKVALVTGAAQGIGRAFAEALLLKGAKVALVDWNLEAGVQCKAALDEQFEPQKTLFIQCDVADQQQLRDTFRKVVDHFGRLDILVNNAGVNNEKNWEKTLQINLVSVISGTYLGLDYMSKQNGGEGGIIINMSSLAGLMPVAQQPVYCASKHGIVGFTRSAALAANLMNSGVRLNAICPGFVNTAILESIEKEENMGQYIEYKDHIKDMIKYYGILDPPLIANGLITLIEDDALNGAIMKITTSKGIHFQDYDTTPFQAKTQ
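NADH formation kinetics: reaction with 30 uM PGE2 and 1 mM NAD+ (final), 20 nM enzyme, Tris-HCl pH 8 with Tween 20, after 15 min compound preincubation at room temperature. Fluorescence change, last versus first of five reads.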
* hit, by the source's call; ? = inconclusive; & = joins results of further samples. % is set by controls: 0 for no effect and ±100 for the full control effect; potency is the fitted concentration of half-maximal effect. The list is partial. The share of hits here may be higher or lower than overall.

SMILES | HPGD inh
COc1ccc(OC)c(NC(=O)Cn2c(=O)oc3ccccc32)c1 | -6%
COc1ccc2cc(C(c3nnnn3C3CCCC3)N3CCc4ccccc4C3)c(=O)[nH]c2c1 (configuration not stated) | ?
COC(=O)c1ccc(C2C(C(=O)Nc3ccc(C)cc3C)=C(C)Nc3ncnn32)cc1 (configuration not stated) | -7%
Cn1c(CN2CCN(C(=O)c3ccccc3Cl)CC2)nc2cc([N+](=O)[O-])ccc21 | -12%
O=C(CSc1nc2c(c(=O)n1-c1ccc(Cl)cc1)SCC2)N1CCCC1 | -14%
COc1ccc(CCNC(=O)c2cc(-c3ccccc3OC)on2)cc1OC | ?
CN(c1ccccc1C(=O)NC1CC2CCC1C2)S(=O)(=O)c1ccccc1 (configuration not stated) | -6%
COCCNC(=O)C(c1ccc(F)cc1)N(CCOC)C(=O)CCC(=O)Nc1nccs1 (configuration not stated) | -1%
CCc1ccc(N(C(=O)c2snc(C(N)=O)c2N)C(C(=O)NCCC(C)C)c2c[nH]c3ccccc23)cc1 (configuration not stated) | -27%
Cc1noc(NC(=O)Nc2ccccc2F)c1C#N | -1%
CN(CC(=O)Nc1ccc(Cl)cc1)S(=O)(=O)c1cccc2cccnc12 | -13%
Cc1nnc(SCC(=O)NC2CCCc3ccccc32)n1-c1ccccc1 (configuration not stated) | 0%

Quoted at random: four entries already listed
SMILES | HPGD inh
CCc1ccc(N(C(=O)c2snc(C(N)=O)c2N)C(C(=O)NCCC(C)C)c2c[nH]c3ccccc23)cc1 (configuration not stated) | -27%
COCCNC(=O)C(c1ccc(F)cc1)N(CCOC)C(=O)CCC(=O)Nc1nccs1 (configuration not stated) | -1%
COc1ccc(OC)c(NC(=O)Cn2c(=O)oc3ccccc32)c1 | -6%
Cn1c(CN2CCN(C(=O)c3ccccc3Cl)CC2)nc2cc([N+](=O)[O-])ccc21 | -12%

A different layout for some results above.
| Structure | HPGD inh |
| --- | --- |
| Cn1c(CN2CCN(C(=O)c3ccccc3Cl)CC2)nc2cc([N+](=O)[O-])ccc21 | -12% |
| CCc1ccc(N(C(=O)c2snc(C(N)=O)c2N)C(C(=O)NCCC(C)C)c2c[nH]c3ccccc23)cc1 (configuration not stated) | -27% |
| CN(CC(=O)Nc1ccc(Cl)cc1)S(=O)(=O)c1cccc2cccnc12 | -13% |
| COC(=O)c1ccc(C2C(C(=O)Nc3ccc(C)cc3C)=C(C)Nc3ncnn32)cc1 (configuration not stated) | -7% |
| O=C(CSc1nc2c(c(=O)n1-c1ccc(Cl)cc1)SCC2)N1CCCC1 | -14% |

Following part
SMILES | HPGD inh
CC(C)C(NC(=O)c1ccc(C(C)(C)C)cc1)C(=O)O (configuration not stated) | -3%
Cc1ccc(S(=O)(=O)N2CCCCC2)cc1NC(=O)Cc1c[nH]c2ccccc12 | -7%
COC(=O)[C@@H]1C(c2c(OC)cc(OC)cc2OC)=NO[C@H]1C(=O)OC | -3%
C=CCn1c(N)c(C(=O)N2CCOCC2)sc1=S | -20%
CCOc1ccc(N/C(C)=C/C(=O)c2ccc(C)o2)cc1 | -14%
CCC(=O)Nc1cccc(NC(=S)NC(=O)c2ccccc2)c1 | -7%
COc1ccc(-c2csc(NC(=O)c3ccc(OCC(=O)N4CCOCC4)c(OC)c3)n2)cc1 | -18%
Nc1nc2n(n1)C(c1cccc(Br)c1)CC(c1ccccc1)N2 (configuration not stated) | -19%
O=C(O)c1n[nH]c2c1CCCCC2 | -3%
O=C(OCC1CC(c2ccccc2)=NO1)c1ccc(Cl)cc1 (configuration not stated) | -8%
CCOC(=O)N1CCC(N2C(=O)c3ccc(C(=O)O)cc3C2=O)CC1 | -8%
COc1ccc(OCC(O)CNC(=O)Nc2ccc(Cl)cc2)cc1 (configuration not stated) | -6%
O=C(c1cc([N+](=O)[O-])ccc1N1CCN(S(=O)(=O)c2ccc(Cl)c(Cl)c2)CC1)N1CCOCC1 | -15%
CC1CCN(Cc2c(C#N)c3ccccc3n2C)CC1 | -2%
O=C(/C=C\C=C/c1ccc2c(c1)OCO2)N1CCCCC1 | 10µM*
COc1ccccc1N1CCN(S(=O)(=O)c2c(C)ccc3nsnc23)CC1 | -22%
Cc1cccc(OC(C)c2ccnc3nc(/N=C/N(C)C)nn23)c1 (configuration not stated) | -29%
CN(C)c1ccc(C(CNC(=O)c2ccccc2F)c2c[nH]c3ccccc23)cc1 (configuration not stated) | -11%
COc1ccc(C2C(C#N)=C(N)Oc3c2c(-c2ccccc2)nn3-c2ccccc2)c(OC)c1OC (configuration not stated) | -24%
Cc1ccc(Cl)c(NC(=S)N(CCCN2CCOCC2)Cc2ccco2)c1 | -9%
CC1CC(=O)C2=C(C1)Nc1ccccc1SC2c1ccc(F)cc1 (configuration not stated) | -7%
Cc1ccc2c(c1)N(CC(=O)NCc1cccs1)C(=O)C(C)O2 (configuration not stated) | 0%
O=C(Oc1ccccc1)N1CCC[C@@]2(CCN(c3ccccc3)C2)C1 | -10%
CCOC(=O)C1CCCN(C(=O)Cc2ccc(OC)c(OC)c2)C1 (configuration not stated) | -12%
O=C(c1ccc2c(Cl)c3c(nc2c1)CCCC3)N1CCC(N2CCCCC2)CC1 | -19%
COc1cccc(CNC(=O)c2cc3oc4ccccc4c3n2C)c1OC | ?
CCOC(=O)c1c(NC(=O)c2cccs2)sc2c1CC(C)(C)OC2 | ?
CC(C)Oc1ccc(Oc2ccc(C(F)(F)F)cn2)cc1 | -6%
Cc1cccc2nc(Cn3c(=O)n(CCCC(=O)NCc4ccco4)c(=O)c4ccccc43)cc(=O)n12 | 28µM*
O=C(OCn1nnc2ccccc2c1=O)c1cn(-c2ccccc2)nc1-c1cccnc1 | -16%
CCn1c(SCC(=O)c2ccc3ccccc3c2)nnc1-c1ccco1 | -13%
CCOc1ccc(NC(=O)C2(c3ccc(OC)c(OC)c3)CCCC2)cc1 | -14%
COc1ccc(N2CCN(Cc3cc(=O)oc4cc5c(cc34)CCCC5)CC2)cc1 | -7%
C=CCNc1nc(NCc2ccco2)nc(OCC)n1 | -15%
CC1CCc2sc(C(=O)NN=C3CCC(c4ccccc4)CC3)cc2C1 (configuration not stated) | -16%
CC(NC(=O)/C(=C/c1ccc(OC(F)F)cc1)c1ccccc1)c1ccccc1 (configuration not stated) | -2%
N#Cc1cc2c([nH]c1=S)CCCC2 | 14µM*
Cc1cc(C)c(C#N)c(Nc2ccccc2Cl)n1 | -23%
Cc1c(NC(=O)CSc2nnnn2C)c(=O)n(-c2ccccc2)n1C | 1%
CC(C)N1C(=O)S/C(=C/c2ccc3c(c2)n(C)c(=O)n3C)C1=O | ?
O=C(c1ccc2c(=O)n(CC3CCCO3)c(=S)[nH]c2c1)N1CCN(c2ccccc2)CC1 (configuration not stated) | -12%
Cc1ccc(-c2nnc(-c3ccncc3)n2-c2ccc(C)cc2)cc1 | -4%
COc1ccc(N2CC(C(=O)Nc3ccc(N4CCOCC4)cc3)CC2=O)cc1 (configuration not stated) | -16%
COc1cccc(-n2nnc3c(=O)n(CC(=O)N4CCCCC4)cnc32)c1 | ?
CCN1CCCC(NC(=O)c2scc3c2CCCC3)C1 (configuration not stated) | -8%
Cc1sc(NC(=O)C2C3CCC(C3)C2C(=O)O)c(C(N)=O)c1-c1ccc(C(C)(C)C)cc1 (configuration not stated) | -21%
Cc1ccccc1C(=O)N/C(=C/c1ccc(-c2cccnc2Cl)o1)C(=O)NCCCN1CCN(C)CC1 | -17%
CCC(=O)Nc1nc(C)nc(C)c1C(C)=O | -3%

HPGD inh: what is marked active above
SMILES | HPGD inh
O=C(/C=C\C=C/c1ccc2c(c1)OCO2)N1CCCCC1 | 10µM*
Cc1cccc2nc(Cn3c(=O)n(CCCC(=O)NCc4ccco4)c(=O)c4ccccc43)cc(=O)n12 | 28µM*
N#Cc1cc2c([nH]c1=S)CCCC2 | 14µM*

(cont.)
SMILES | HPGD inh
CC1(C)CC(=O)C(C2c3ccccc3Oc3ccccc32)C(=O)C1 | 0%
Cc1cccc(NC(=O)CCN2CCN(C/C=C/c3ccccc3)CC2)c1 | 4%
CCOC(=O)CSc1nnc(-c2ccc(Cl)cc2Cl)o1 | -24%
CCOc1ccc(NC(=O)CN(c2ccc([N+](=O)[O-])cc2)S(=O)(=O)c2ccccc2)cc1 | -17%
O=C(NCc1cccs1)c1cnc2sccn2c1=O | ?
CC(=O)c1c(C)[nH]c(C(=O)CSc2ncnc3sc(-c4ccccc4)cc23)c1C | -17%
O=C(c1sc2ccccc2c1Cl)N1CCN(c2ccc(F)cc2)CC1 | -23%
CCOC(=O)CNC(=O)CSc1nnc(Cn2cnc3ccccc32)n1C | 1%
COc1ccc(C(=O)NC(C)c2nnc(SCC(=O)Nc3nc4ccccc4s3)n2C)cc1 (configuration not stated) | -7%
CC(C)C(c1nnnn1Cc1ccc(F)cc1)N1CCSCC1 (configuration not stated) | 2%
COc1ccc(NC(=O)CSc2nc(N)c(C#N)cc2C#N)cc1 | -18%
CCCSc1nc(-c2ccccc2)cc(C(F)(F)F)c1C#N | -26%

3 compounds already listed, ordered by their value in HPGD inh, high to low.
canonical_smiles,HPGD inh
Cc1cccc2nc(Cn3c(=O)n(CCCC(=O)NCc4ccco4)c(=O)c4ccccc43)cc(=O)n12,28µM*
N#Cc1cc2c([nH]c1=S)CCCC2,14µM*
O=C(/C=C\C=C/c1ccc2c(c1)OCO2)N1CCCCC1,10µM*

Other results follow.
SMILES | HPGD inh
CCCS(=O)(=O)N1CCN(Cc2ccc3c(c2)c2ccccc2n3CC)CC1 | ?
C=CCN1c2ccccc2[C@]23C[C@@H](C(=O)OC)N=C2NC(C(=O)OC)=C(C(=O)OC)[C@H]13 | 1%
CCc1nc2c(C#N)c(-c3ccc(Cl)cc3)ccn2n1 | ?
CCCC(C)(C)NC(=O)CCCCC(=O)NC(C)(C)CCC | -15%
CC(C)OC(=O)c1cc(NC(=S)Nc2ccc([N+](=O)[O-])cc2)cc(C(=O)OC(C)C)c1 | ?
O=C(NC(=S)Nc1ccc(Cc2ccncc2)cc1)c1ccccc1 | ?
COC(=O)C1=C(C)n2cnnc2NC1c1ccc(Cl)cc1 (configuration not stated) | 3%
CCOc1ccccc1NC(=O)CCC(=O)Nc1ccccc1OCC | -8%
CCN(CC)S(=O)(=O)c1ccc(OC)c(NC(=S)Nc2cccc(C)c2C)c1 | 1%
CC(NC(=O)c1ccc(N2CCCC2=O)cc1)c1ccccc1 (configuration not stated) | -4%
CC(C)c1ccc(NC(=O)COc2nnc(-c3cccs3)c(-c3cccs3)n2)cc1 | -9%
O=CN1CCC(=O)N(Cc2ccccc2)c2ccccc21 | -4%
Cc1cc(C)c2oc(-c3ccc(C)c(NC(=S)NC(=O)/C=C/c4ccco4)c3)nc2c1 | -15%
Cc1c(C(=O)N2CCN(C)CC2)oc2c1C(=O)CC(C)(C)C2 | -11%
O=C1CC(c2ccco2)CC(O)=C1C=NCC1NCCc2ccccc21 (configuration not stated) | -14%
Cc1ccc(C(=O)N/C(=C\c2sccc2C)C(=O)NCc2ccco2)cc1 | 0%
Cc1c(C(=O)C(=O)N2c3ccc(F)cc3CCC2C)c2ccccc2n1C (configuration not stated) | -10%
O=S(=O)(Nc1ccc(-n2cccc2)cc1)c1ccccc1 | ?
CCN(CC)CC(=O)NC12CC3CC(CC(C3)C1)C2 | -22%
COc1cc(/C=C/C(=O)OCC(=O)Nc2ccc(S(=O)(=O)N3CCCC3)cc2)ccc1O | ?
COc1ccc(C(=O)Nc2nccs2)cc1[N+](=O)[O-] | -6%
O=C(Cn1nnc2ccccc2c1=O)Nc1ccc2c(c1)CCC2 | -3%
N#Cc1cccc(NC(=O)N2CCCC3(CCN(C(=O)c4cc(C(F)(F)F)cc(C(F)(F)F)c4)CC3)C2)c1 | -9%
Cc1ccccc1Cn1c(=N)n(CC(=O)c2ccc([N+](=O)[O-])cc2)c2ccccc21 | -10%
COc1cc(N2CCCC2)ccc1[N+](=O)[O-] | -21%
COC(=O)CC1c2ccccc2C=C(C2CC2)N1C(=O)OC (configuration not stated) | -3%&-7%
O=C(O)CCn1cc(/C=C\C(=O)c2ccc(Cl)cc2)c(-c2cccc(Br)c2)n1 | 25µM*
CC(C)NC(=O)c1ccc(C2SCC(=O)N2Cc2ccccc2)cc1 (configuration not stated) | 3.2µM*
O=C(NCc1ccccc1)c1cccc(COc2cc(Cl)ccc2Cl)c1 | -15%
O=C(N/N=C\c1c(O)ccc2ccccc12)c1ccc(S(=O)(=O)N2CCCCC2)cc1 | -13%
COc1ccc(N/C=C/C(=O)c2ccc(Cl)cc2)cc1 | -6%
O=C(C1CCCO1)N1CCC(c2nc3ccccc3[nH]2)CC1 (configuration not stated) | -12%
Cc1cccc(N2CC(O)=C(c3nc4ccccc4n3C)C2=N)c1 | 11µM*
CC(/C=N\NC(=O)CN1CCN(S(=O)(=O)c2ccc(C)cc2)CC1)=C\c1ccccc1 | -2%
Cc1cc(C)n(-c2cc(N3CCOCC3)nc(-c3ccccc3)n2)n1 | -4%
CCNC(=O)c1c(O)c2cccc3c2n(c1=O)CC3 | -28%
COc1ccccc1CNC(=O)c1ccc2nc3[nH]c4ccccc4c3nc2c1 | -10%
COc1cccc(S(=O)(=O)Nc2ccc3sc(C)nc3c2)c1 | -12%
CCOC(=O)C(NC(=O)c1ccc(F)cc1)(Nc1sc2c(c1C(N)=O)CCC2)C(F)(F)F (configuration not stated) | -17%
O=C1c2ccccc2C(=O)N1CC1=CCS(=O)(=O)C1 | -4%
CC[C@H](NC(C)C)[C@H](O)c1ccc(O)c(O)c1 | -3%
CCN(CC)CCCNC(=O)c1cc(-c2ccc(O)cc2)on1 | 0%
COc1ccc([C@H]2[C@H](C(=O)C(C)(C)C)N3N=Cc4ccccc4C3[C@]23N=C(c2ccccc2)OC3=O)cc1 (some centres not stated) | -27%
CC(C)NC(=O)CCCc1ccccc1 | -21%
CC(C)(C)c1nc2ccccc2c2nnc(SCC(=O)NCc3ccco3)n12 | 16µM*
COc1ccc([N+](=O)[O-])cc1NC1C2CC3CC(C2)CC1C3 (configuration not stated) | 2%
